# NS1 inh: inhibitors of influenza NS1 protein function; S. cerevisiae slowed by influenza A NS1, growth recovery by OD600; 270,000 compounds, 0.4% hits; Potency, µM (highest dose often 46.1 µM), without a hit: top-dose activity, positive = more growth; AID 2326; also: actives are rising curves; nearly all actives have a fitted effect of over 50% in size
#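 Compounds were scored for reversing the slow growth caused by influenza A NS1 in S. cerevisiae, measured by optical density at 600 nm. Assay medium contained 2% galactose at pH 6.0; NS1-free yeast of the same strain were the positive control.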
# LASV entry inh: inhibitors of Lassa virus binding or cell entry; 300,000 compounds, 1.2% hits; Potency, µM (top dose mostly 37.9 µM), for inactives: top-dose activity change, negative = inhibition, actives largely listed as inhibitors; Lassa virus pseudotype entry inhibition, cell reporter; control for the full effect not named in the record; active means well fitted inhibition curve with a large enough effect; inconclusive means small, poorly fitted or top-dose-only effect, or effect the other way; inactive means flat fitted curve, though single readings scatter; tested in HEK293 cells; also: % is scaled to controls: 0 for no effect and ±100 for the full control effect; nearly all actives have a fitted effect of over 50% in size; luciferase read-out
# StopGo reporter: FMDV 2A StopGo reporter, luciferase signal; human cells with a luciferase reporter of 2A StopGo recoding; control for the full effect not named in the record; Potency, µM (series often up to 57.9 µM), for the others: top-dose signal change, negative = less light; 410,000 compounds, 1.2% hits; active = well fitted falling curve with a large enough effect; inconclusive = small, poorly fitted or top-dose-only effect; inactive = no such curve, though single readings can be large or run the other way; tested in HEK293T cells; also: % is scaled to controls: 0 for no effect and ±100 for the full control effect; nearly all actives have a fitted effect of over 45% in size; luciferase light after 4 h
# RE007 growth inh: less growth of the S. pombe RE007 Vpr strain; Potency, µM (series often up to 92.2 µM), inactives show top-dose activity change, negative = less growth; 360,000 compounds, 0.21% hits; AID 651644; S. pombe RE007 Vpr strain, BacTiter-Glo ATP luminescence, 24 h; control for the full effect not named in the record; active = well fitted falling curve with a large enough effect; inconclusive = small, poorly fitted or top-dose-only effect; inactive = no such curve, though single readings can be large or run the other way;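 also: % is scaled to controls: 0 for no effect and ±100 for the full control effect; nearly all actives have a fitted effect of over 50% in size; the assay follows cell death caused by Vpr and the record does not say whether a fall means rescue or toxicity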
#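 Fission yeast strain RE007, carrying one chromosomally integrated HIV-1 vpr copy, was seeded at OD 0.01 in PMG+AL medium with 23 nL pinned compound. After 24 h at 30 °C and 99% humidity, viability was read by BacTiter-Glo luminescence.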
# Cruzain inh noDet: cruzain (T. cruzi) inhibition without detergent; Potency, µM, inactives show max response, negative = inhibition, usual class: inhibitors; purified cruzain, Z-FR-AMC fluorescence, no detergent; 200,000 compounds, 2.3% hits; active = well fitted curve in the direction sought with a large enough effect; inconclusive = small, poorly fitted or top-dose-only effect, or another doubt; inactive = no such curve, though single readings can be large; an effect the other way counts as inactive or inconclusive;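 also: plate controls were enzyme without inhibitor for no effect and buffer without enzyme for full effect; nearly all actives have a fitted effect of over 40% in size; top concentration of the series not given in the record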
# Target sequence (P25779 123-467 limits assumed): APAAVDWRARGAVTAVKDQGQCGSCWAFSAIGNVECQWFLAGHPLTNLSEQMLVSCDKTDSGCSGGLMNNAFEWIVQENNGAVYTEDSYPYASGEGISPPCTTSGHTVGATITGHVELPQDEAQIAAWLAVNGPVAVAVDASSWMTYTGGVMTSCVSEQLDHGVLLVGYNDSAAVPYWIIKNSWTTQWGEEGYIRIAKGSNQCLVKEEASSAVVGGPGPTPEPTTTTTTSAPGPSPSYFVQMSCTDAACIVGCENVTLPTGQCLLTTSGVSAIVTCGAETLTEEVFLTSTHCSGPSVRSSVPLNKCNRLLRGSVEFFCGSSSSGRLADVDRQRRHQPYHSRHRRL
#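 Purified cruzain at 1.5 nM, pre-incubated 15 min with compound at room temperature in 100 mM sodium acetate pH 5.5, 5 mM DTT, 0.00005% Triton X-100. Reaction started with 2 uM Z-FR-AMC; AMC fluorescence increase over 60 s gives rate.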
# SARS PLP yeast: inhibitors of SARS-CoV papain-like protease in yeast. S. cerevisiae expressing SARS-CoV PLpro, growth rescue; control for the full effect not named in the record. Potency, µM (titrated, usually from 32.9 µM), without a hit: top-dose activity, positive = growth rescue. 330,000 compounds, 0.19% hits; also: 0% is about no effect; nearly all actives have a fitted effect of over 55% in size; growth read by luminescence after 48 h
# MARV entry inh: Marburg virus entry inhibition; 300,000 compounds, 1.8% hits; Marburg virus pseudotyped entry inhibition, cell reporter; control for the full effect not named in the record; about a third of the inactives were read at about 46 µM; Potency, µM (titrated, usually from 37.8 µM), inactives show top-dose activity change, negative = inhibition, most hits filed as inhibitors; active = well fitted inhibition curve with a large enough effect; inconclusive = small, poorly fitted or top-dose-only effect, or effect the other way; inactive = flat fitted curve, though single readings scatter; tested in HEK293 cells; about a fifth of its hits are not listed in these tables; also: % is scaled to controls: 0 for no effect and ±100 for the full control effect; luciferase read-out
# Cruzain Triton: blocks cruzain activity in presence of Triton detergent; P25779; purified cruzain, Z-FR-AMC fluorescence, 0.01% Triton; Potency, µM, without a hit: max response, negative = inhibition, hits mostly inhibitors; 200,000 compounds, 0.43% hits; AID 1478; active = well fitted curve in the direction sought with a large enough effect; inconclusive = small, poorly fitted or top-dose-only effect, or another doubt; inactive = no such curve, though single readings can be large; an effect the other way counts as inactive or inconclusive;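 also: plate controls were neutral wells for no effect and buffer without enzyme for full effect; nearly all actives have a fitted effect of over 40% in size; top concentration of the series not given in the record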
#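 15 min RT preincubation of 1.5 nM cruzain with compound, then 2 uM Z-FR-AMC added; kinetic AMC fluorescence, 60 s delta. Triton X-100 0.01%, pH 5.5.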
# Starred values were filed as active, the others as inactive; ? = inconclusive; / = no result given; & = joins results of further samples; [ ] = remark or other dose. Unless noted, calls follow the shape of the dose curve; as a rule, active means well fitted rising curve with a large enough effect; inconclusive means small, poorly fitted or top-dose-only effect; inactive means no such curve, though single readings can be large or run the other way. Potency is read from the fitted curve at half-maximal effect.
SMILES,NS1 inh,LASV entry inh,StopGo reporter,RE007 growth inh,Cruzain inh noDet,SARS PLP yeast,MARV entry inh,Cruzain Triton
Cc1cc(C(F)(F)F)nc(CCNC(=O)C2CCC(=O)N(Cc3cccc(F)c3)C2)n1 (stereo not given),-15%,10%,-15%,-7%,/,0%,2%,/
CCCCCC(=O)NN=C1CCN(Cc2ccccc2)CC1,14%,0%,0%,1%,12%,10%,?,-0.1%
CCc1cccc(NC(=O)CN2CCCN(Cc3cccc(C)c3)S2(=O)=O)c1,/,?,-12%,/,8%,/,/,-4.9%
COc1ccc(CCNC(=O)c2cc3c(=O)n4ccccc4nc3n2C)cc1,/,-28%[46.1 µM],-4%,/,?,/,/,?
O=C1CN=C(c2ccccc2)c2cc(Br)ccc2N1Cc1cc(=O)n2ccccc2n1,-5%,-1%,-20%,0%,30%,-3%,-11%,-3.1%
COc1ccccc1C1CC(=O)NC(SCC(=O)Nc2ccccc2)=C1C#N (stereo not given),3%,/,-11%,7%,-4%,-2%,/,-1.5%
COc1cc(CC(=O)OCc2ccccc2F)cc(OC)c1OC,-20%,8%,-2%,11%,/,0%,-4%[46.1 µM],/
COc1cc(OC)c(OC)cc1CNc1cc(C)ccc1OC,-21%,?,-2%,-6%,6%,-4%,-25%,-1.4%
Cc1noc(C)c1C(=O)OCC(=O)/C=C1/N(C)c2ccccc2C1(C)C,/,18%[46.1 µM],19%,11%,/,/,-1%[46.1 µM],/
O=C(CSc1nnc(-c2cccs2)o1)c1cccs1,-3%,14%,/,4%,-1%,16%,17%,2.7%
Cn1cc(S(=O)(=O)N2CCc3ccccc32)cc1C(=O)NC1CCCCC1,17%,/,-15%,13%,/,-1%,/,/
Cc1ccc(NC(=O)CCNS(=O)(=O)c2ccc3c(c2)CCC(=O)N3)cc1F,2%,/,7%,8%,/,0%,/,/
CCC(C)NS(=O)(=O)c1ccc(N)cc1 (stereo not given),/,2%,4%,-13%,/,4%,1%,/
Cn1c(=O)c2sccc2n2c(CCC(=O)N3CCN(c4ccccc4)CC3)nnc12,/,?,-19%,/,-2%,/,-2%[46.1 µM],-2.4%
COc1ccc(OC)c(NC(=O)CSc2nc(N3CCOCC3)nc(N3CCOCC3)n2)c1,-2%,-43%,-4%,-27%,/,1%,-18%,/
Cc1cc(NC(=O)c2ccccc2)ncc1NC(=O)c1cccs1,-4%,/,76%[activator],10%,/,1%,/,/
CC1(C)CC(C(N)=S)CCO1 (stereo not given),6%,11%,-3%,2%,/,0%,-9%[46.1 µM],/
O=C(O)CSc1nnc(-c2ccccc2Br)n1-c1cccc(C(F)(F)F)c1,5%,/,12%,-8%,/,2%,/,/
Cc1cccc2cc(CN(CC3CCCO3)C(=O)c3cccs3)c(=O)[nH]c12 (stereo not given),3%,/,-7%,-4%,/,6%,/,/
COc1ccc(C(=S)N2CCNCC2)cc1,?,0%,10%,-1%,-4%,-4%,16%,-5.3%
CC(=O)c1ccc(NC(=S)NCc2cccnc2)cc1,6%,17%[46.1 µM],16%,7%,/,0%,-17%[46.1 µM],/
O=C(O)Cn1c2ccccc2c2n[nH]c(=S)nc21,2%,1%[46.1 µM],16%,8%,/,9%,12%[46.1 µM],/
Cc1cc(S(=O)(=O)NC(C)C)ccc1OCC(=O)NCc1ccccc1,-3%,13%,28%,-3%,/,0%,23%[46.1 µM],/
CCc1ccc(-n2nc(CO)c(C(=O)NCc3cccs3)n2)cc1,/,?,20%,/,-4%,/,?,-0.6%
CC(=NNC(=O)c1ccncc1)c1ccccc1O,/,?,5%,10%,/,/,3.2µM*,/

# Continued:
SMILES,NS1 inh,LASV entry inh,StopGo reporter,RE007 growth inh,Cruzain inh noDet,SARS PLP yeast,MARV entry inh,Cruzain Triton
CCN(CC)S(=O)(=O)c1ccc(S(=O)(=O)Nc2ccc(C(=O)N3CCCC3)cc2)cc1,-2%,-17%,20%,-5%,17%,1%,-4%,1.9%
COc1cc(NC(=O)C2CC(c3c(F)cccc3Cl)=NO2)cc(OC)c1OC (stereo not given),-20%,-14%[46.1 µM],25µM*,-4%,/,-3%,?,/
O=C(NCc1ccc(Cl)cc1)c1cc2ccccc2oc1=O,6%,23%,28%,1%,/,2%,7%,/
COC(=O)CSc1nnc(CNc2ccc(OC)cc2)n1C,1%,16%,-9%,4%,-2%,5%,20%,1.8%
C/C(=N\NC(=O)c1ccccc1)c1ccccc1Br,-1%,-11%,61%[activator],19%,-10%,-10%,?,-1.8%
Cc1ccc(C2Nc3cccc4cccc(c34)N2)s1,5%,6%,9%,/,20µM*,-15%,?,-8.4%
CCCc1ccc(OCC(O)CN2CCN(CCO)CC2)cc1 (stereo not given),17%,/,-20%,0%,/,-7%,/,/
O=c1[nH][nH]cc1C=Nc1ccc(Oc2ccccc2)cc1,/,-13%,-4%,-6%,/,0%,0%[46.1 µM],/
COc1ccc(-c2csc(NC(=O)COC(=O)c3ccc(Br)o3)n2)cc1,10%,5%,/,/,?,-1%,-20%,1.2%
COc1cc(OC)cc(C(=O)N2CCN(C(=O)Cc3ccccc3)CC2)c1,4%,-9%,-10%,13%,/,0%,?,/
COc1ccc(OC)c(NC(=O)c2cc(-c3cc(Cl)ccc3O)n[nH]2)c1,5%,?,-48%,16%,?,0%,?,-0.1%
Cc1ccc(-n2nc(C(=O)N3CCN(C)CC3)c3c4ccccc4n(C)c3c2=O)cc1,-1%,-23%,-6%,-1%,/,/,5%,/
Nc1nc(SCC(=O)NCC2CCCO2)[nH]c(=O)c1NC(=O)c1ccc(F)c(F)c1 (stereo not given),9%,-14%,-5%,-16%,/,-1%,-12%,/
Cc1cc(CN2CCCC(N3CCc4ccccc4C3)C2)cc(C)c1O (stereo not given),8%,/,-4%,10%,/,2%,/,/
Nc1nnc(-c2ccc(F)cc2)s1,-4%,-14%,54%[activator],9%,16%,-3%,0%,-3.4%
Cc1ccc(NC(=O)CN(C)C(=O)Cn2ncc(Cl)c(Cl)c2=O)cc1,9%,16µM*,0%,15%,3%,-19%,5µM*,-4.8%
O=C(COC(=O)/C=C/c1cccc(Cl)c1)Nc1c(F)cccc1F,/,-1%,6%,-7%,/,17%,5%,/
O=C(c1cccc([N+](=O)[O-])c1)N1c2ncnn2C2(CCCCC2)[C@@H]2CCCC[C@@H]21,/,11%[46.1 µM],?,/,-4%,/,1%[46.1 µM],-0.5%
CC(=O)[C@H]1CC[C@H]2[C@@H]3CCC4=CC(=O)CC[C@]4(C)[C@H]3[C@H](O)C[C@]12C,27%,-8%,-4%,-13%[18.4 µM],-1%,2%,-2%,-4.5%
CCCCC(=O)Nc1ccc(NC(=O)C(C)C)cn1,1%,19%,47%[activator],-8%,-3%,9%,29%,2.4%
O=C(CN1C(=O)S/C(=C/c2ccncc2)C1=O)N1CCOCC1,5%,4%,-5%,-5%,0%,-19%,-27%,-0.8%
COc1ccc(O)c(C(=O)c2cc(C(=O)NCCc3ccccc3)c(=O)n(CCc3ccccc3)c2)c1,?,?,-13%,/,-2%,24%,?,-4.7%
Cc1cc(C)n2nc(C(=O)N/N=C/c3c4ccccc4cc4ccccc34)nc2n1,23%,?,?,-16%,?,6%,?,-3.3%
Cc1ccc(NCC(=O)Nc2c(C)n(C)n(-c3ccccc3)c2=O)cc1S(=O)(=O)N(C)C,-6%,/,-5%,2%,/,0%,/,/
COC(=O)c1cnn(-c2ccc(C(=O)Nc3ccc(C(C)=O)cc3)cc2)c1N,/,3%[46.1 µM],2%,/,21%,-6%,/,1.6%

# Next part
SMILES,NS1 inh,LASV entry inh,StopGo reporter,RE007 growth inh,Cruzain inh noDet,SARS PLP yeast,MARV entry inh,Cruzain Triton
Cn1cc(S(=O)(=O)c2ccccc2)c(=O)c2cc(F)c(N3CCOCC3)cc21,-13%,1%&16%[46.1 µM],-10%&-16%,6%,-8%,2%,-28%&-28%[46.1 µM],-2.5%
CN(C)c1ccc(C(=O)NCC2CCCO2)cc1 (stereo not given),6%,?,33%[activator],21%,-7%,-2%,?,-2.8%
COc1ccc(CC(=O)OCC(=O)Nc2ncc(Cl)cc2Cl)cc1,-3%,-1%,-17%,3%,-9%,1%,5%,-0.5%
CCCN(CCC)CCCNC(=O)c1cn(CC)c2ccc(S(=O)(=O)N3CCc4ccccc4C3)cc2c1=O,/,?,-10%&-17%,-5%,4%,1%,?,-0.4%
Cc1cc(C)c(S(=O)(=O)NCC(c2cccnc2)N2CCN(Cc3ccccc3)CC2)c(C)c1 (stereo not given),-17%,/,-3%,0%,/,-2%,/,/
CC(=O)Nc1cccc(NC(=O)Cc2ccc3ccccc3c2)c1,21%,0%,-18%,-5%,/,6%,0%,/
CCOc1ccccc1/C=N/n1c(C2CCCCC2)n[nH]c1=S,1%,/,-11%,2%,/,-1%,/,/
COc1ccc2c(c1)c1c(c(=O)n(-c3ccc(C)cc3)c(=O)n1CC(=O)Nc1cc(C)ccc1C)n2C,/,8%[46.1 µM],5%,/,-7%,/,/,-1.9%
COc1ccc(NS(=O)(=O)c2cccc(C(=O)Nc3ccccc3C(=O)O)c2)cc1,?,/,3%,-1%,/,2%,/,/
CSc1sc(C(=O)O)c(C)c1C(C)=O,7%,9%,-8%,2%,-14%,4%,10%,4.0%
CCCNc1nc(-c2cc(-c3ccc(Cl)cc3)on2)cc(C(C)C)n1,3%,/,-11%,16%,/,0%,/,/
Cc1nc2ccc(NC(=O)Cc3ccc4c(c3)OCCO4)cc2s1,-50%,22%,8%,/,-4%,-86%,2%,-4.2%
O=C(CSc1ccc2nnc(-c3cccc(F)c3)n2n1)NCC1CCCO1 (stereo not given),1%,-1%,-18%,5%,-7%,19%,25%,3.0%
COc1ccc(OC)c(NC(=O)CSc2ncc3c(n2)-c2ccccc2N(C)S3(=O)=O)c1,/,18%[46.1 µM],?,/,-18%,/,/,0.4%
COC(=O)C1=C(c2ccc(F)cc2OCc2ccccc2)C[C@@H]2CC[C@H]1N2C(=O)NCc1ccc(OC)c(OC)c1,/,/,-19%,14%,/,1%,1%,/
Cc1cn2c(=O)cc(COC(=O)c3cccc(NC(=O)c4ccccc4Cl)c3)nc2s1,/,6%[46.1 µM],-9%,/,-7%,/,/,-1.2%
CC1=C(C#N)C(c2cccnc2)C2=C(CCCC2=O)N1 (stereo not given),18%,8%,-15%,3%,1%,5%,-6%,-2.4%

# Assay outcomes: PubChem, National Center for Advancing Translational Sciences (NCATS)
